Assay outcomes deposited in PubChem BioAssay by National Center for Advancing Translational Sciences (NCATS).
2A StopGo: lowers the luciferase signal of an FMDV 2A StopGo reporter. human cells with a luciferase reporter of 2A StopGo recoding; control for the full effect not named in the record. Potency, µM (titrated, usually from 57.9 µM), for inactives: top-dose signal change, negative = less light. 410,000 compounds, 1.2% hits; active = well fitted falling curve with a large enough effect; inconclusive = small, poorly fitted or top-dose-only effect; inactive = no such curve, though single readings can be large or run the other way; tested in HEK293T cells; also: % is scaled to controls: 0 for no effect and ±100 for the full control effect; nearly all actives have a fitted effect of over 45% in size; luciferase light after 4 h
NS1 function inh: influenza NS1 inhibition. S. cerevisiae slowed by influenza A NS1, growth recovery by OD600. Potency, µM (highest dose often 46.1 µM), for the others: at the highest dose activity, positive = more growth. 270,000 compounds, 0.4% hits. AID 2326; active means well fitted rising curve with a large enough effect; inconclusive means small, poorly fitted or top-dose-only effect; inactive means no such curve, though single readings can be large or run the other way; also: nearly all actives have a fitted effect of over 50% in size
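Recovery from NS1-induced slow growth read by OD600 in budding yeast switched to galactose assay medium (pH 6.0, -URA) at 1:100 dilution. Compound 23 nl per well; the matching strain lacking NS1 serves as control.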
Marburg entry inh: inhibitors of Marburg virus binding or cell entry; Marburg virus pseudotyped entry inhibition, cell reporter; control for the full effect not named in the record; about a third of the inactives were read at about 46 µM; Potency, µM (top dose mostly 37.8 µM), inactives show at the highest dose activity change, negative = inhibition, usual class: inhibitors; 300,000 compounds, 1.8% hits; active = well fitted inhibition curve with a large enough effect; inconclusive = small, poorly fitted or top-dose-only effect, or effect the other way; inactive = flat fitted curve, though single readings scatter; tested in HEK293 cells; about a fifth of its hits are not listed in these tables; also: % is scaled to controls: 0 for no effect and ±100 for the full control effect; luciferase read-out
Cruzain noTriton: cruzain (T. cruzi) inhibition without detergent; P25779; purified cruzain, Z-FR-AMC fluorescence, no detergent; Potency, µM, without a hit: max response, negative = inhibition, hits mostly inhibitors; 200,000 compounds, 2.3% hits; AID 1476;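 also: plate controls were enzyme without inhibitor for no effect and buffer without enzyme for full effect; nearly all actives have a fitted effect of over 40% in size; top concentration of the series not given in the record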
Target sequence (P25779 123-467 limits assumed): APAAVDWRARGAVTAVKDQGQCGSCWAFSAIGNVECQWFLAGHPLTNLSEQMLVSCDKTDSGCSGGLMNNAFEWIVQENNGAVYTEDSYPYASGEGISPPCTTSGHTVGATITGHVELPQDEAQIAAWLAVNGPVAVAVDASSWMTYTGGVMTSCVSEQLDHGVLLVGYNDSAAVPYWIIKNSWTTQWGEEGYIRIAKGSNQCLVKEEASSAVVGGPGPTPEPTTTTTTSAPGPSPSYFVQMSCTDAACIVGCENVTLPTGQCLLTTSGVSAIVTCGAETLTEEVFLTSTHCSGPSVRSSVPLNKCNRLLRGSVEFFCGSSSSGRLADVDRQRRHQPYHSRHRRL
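Detergent-free condition (0.00005% Triton X-100) in acetate buffer pH 5.5 with DTT. 1.5 nM enzyme and compound were pre-mixed 15 min, then 2 uM Z-FR-AMC substrate added; reaction progress from fluorescence change between first and third reads (60 s).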
Lassa entry inh: Lassa virus entry inhibition; Potency, µM (highest dose often 37.9 µM), inactives show top-dose activity change, negative = inhibition, usual class: inhibitors; Lassa virus pseudotype entry inhibition, cell reporter; control for the full effect not named in the record; AID 540256; 300,000 compounds, 1.2% hits; active means well fitted inhibition curve with a large enough effect; inconclusive means small, poorly fitted or top-dose-only effect, or effect the other way; inactive means flat fitted curve, though single readings scatter; tested in HEK293 cells; also: % is scaled to controls: 0 for no effect and ±100 for the full control effect; nearly all actives have a fitted effect of over 50% in size; luciferase read-out
RE007 growth inh: less growth of the S. pombe RE007 Vpr strain. S. pombe RE007 Vpr strain, BacTiter-Glo ATP luminescence, 24 h; control for the full effect not named in the record. Potency, µM (doses to about 92.2 µM), for inactives: top-dose activity change, negative = less growth. 360,000 compounds, 0.21% hits; active = well fitted falling curve with a large enough effect; inconclusive = small, poorly fitted or top-dose-only effect; inactive = no such curve, though single readings can be large or run the other way;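 also: % is scaled to controls: 0 for no effect and ±100 for the full control effect; nearly all actives have a fitted effect of over 50% in size; the assay follows cell death caused by Vpr and the record does not say whether a fall means rescue or toxicity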
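Fission yeast strain RE007, carrying one chromosomally integrated HIV-1 vpr copy, was seeded at OD 0.01 in PMG+AL medium with 23 nL pinned compound. After 24 h at 30 °C and 99% humidity, viability was read by BacTiter-Glo luminescence.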
SARS PLP yeast: SARS-CoV PLP inhibition in yeast | S. cerevisiae expressing SARS-CoV PLpro, growth rescue; control for the full effect not named in the record | Potency, µM (doses to about 32.9 µM), without a hit: at the top dose activity, positive = growth rescue | 330,000 compounds, 0.19% hits; active means well fitted rising curve with a large enough effect; inconclusive means small, poorly fitted or top-dose-only effect; inactive means no such curve, though single readings can be large or run the other way; also: 0% is about no effect; nearly all actives have a fitted effect of over 55% in size; growth read by luminescence after 48 h
Cruzain inh Det: blocks cruzain activity in presence of Triton detergent; P25779; purified cruzain, Z-FR-AMC fluorescence, 0.01% Triton; AID 1478; 200,000 compounds, 0.43% hits; Potency, µM, inactives show max response, negative = inhibition, usual class: inhibitors;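 also: plate controls were neutral wells for no effect and buffer without enzyme for full effect; nearly all actives have a fitted effect of over 40% in size; top concentration of the series not given in the record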
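Detergent-containing arm of a paired screen for aggregation-based inhibition: 0.01% Triton X-100 present. Cruzain at 1.5 nM cleaved 2 uM Z-FR-AMC at pH 5.5 with 5 mM DTT; AMC fluorescence gain over 60 s measured activity.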
Starred values were filed as active, the others as inactive; ? = inconclusive; . = not tested or not shown; & = joins results of further samples; [ ] = another dose, or the depositor's remark. Unless noted, calls follow the shape of the dose curve; as a rule, active = well fitted curve in the direction sought with a large enough effect; inconclusive = small, poorly fitted or top-dose-only effect, or another doubt; inactive = no such curve, though single readings can be large; an effect the other way counts as inactive or inconclusive. Potency is read from the fitted curve at half-maximal effect.

SMILES | 2A StopGo | NS1 function inh | Marburg entry inh | Cruzain noTriton | Lassa entry inh | RE007 growth inh | SARS PLP yeast | Cruzain inh Det
COc1ccc(-c2cn3cccc(C)c3n2)cc1Br | 49%[activator] | -17% | ? | -4% | ? | -22% | -25% | -9.8%
CCOc1ccc(NC(=O)CSC2=Nc3ccccc3C3=NC(CC(=O)NCc4cccs4)C(=O)N23)cc1 (configuration not stated) | -23% | . | . | 28% | 8%[46.1 µM] | . | . | -2.4%
COc1ccc(OC)c(-c2nc(CN3CCN(C(=O)c4ccco4)CC3)c(C)o2)c1 | 18% | 8% | 11%[46.1 µM] | . | -1%[46.1 µM] | -7% | -5% | .
COc1cccc(S(=O)(=O)NCc2ccc(C(=O)N3CCN(c4ccccc4)CC3)cc2)c1 | ? | 7% | . | . | . | -2% | 2% | .
COC(=O)c1ccc(/C=C/C(=O)OCC(=O)Nc2sccc2C(N)=O)cc1 | ? | . | 1%[46.1 µM] | . | -24%[46.1 µM] | -14% | -2% | .
COc1ccc(NC(=O)C(=O)NCCN2CCN(C(=O)c3ccc(C(C)(C)C)cc3)CC2)cc1 | ? | 15% | . | . | . | -6% | -4% | .
O=C(N/N=C/c1c(O)n(-c2ccccc2)c(=S)[nH]c1=O)c1ccccc1 | 63%[activator] | 0% | ? | . | 4% | -3% | 0% | .
COc1ccc(NC(=O)CCCS(=O)(=O)c2nc(-c3ccccc3OC)cc(C(F)(F)F)n2)c(OC)c1 | 7% | . | ? | 23% | ? | . | . | -5.1%
Cc1csc(NC(=O)Nc2cccc(Cl)c2)n1 | 11% | -34% | ? | -2% | -9% | -23% | -7% | -4.6%
O=C(c1cc(F)ccc1F)C1CCCN(C(=O)CCc2cnccn2)C1 (configuration not stated) | -6% | -2% | 16%[46.1 µM] | . | -4% | 12% | 0% | .
CCC(C)Sc1nc2ccccc2c(=O)[nH]1 (configuration not stated) | -11% | -16% | -24% | -4% | 0% | -22% | -6% | -1.8%
COc1ccc(S(=O)(=O)N(CC(=O)NCc2cccnc2)c2ccc(F)cc2)cc1OC | . | -9% | 13% | 1% | -12% | . | 11% | 1.0%
O=S(=O)(NCC1CCCO1)c1ccc(Br)cc1 (configuration not stated) | 59%[activator] | 7% | . | . | . | 2% | -1% | .
COc1cccc(NC(=O)CN(C)C(=O)CNC(=O)c2ccc3ccccc3c2)c1 | 30% | . | -11% | . | 8% | -2% | 4% | .
CCC1CCCCN1C(=O)Nc1cccc(NC(=O)N2CCCCC2CC)c1 (configuration not stated) | -11% | 8% | ? | 7% | 1% | -11% | 4% | 0.4%
COc1ccc(-c2[nH]c(-c3ccccc3)nc2SCC(=O)NC2CCCC2)cc1 | -13%&0% | -76% | -13%[46.1 µM] | -2%&3% | ? | -5% | 12% | -7.2%&-4.1%
COc1ccccc1CN1C(=O)CN(C2CCCCCC2)C(=O)C1c1ccc(F)cc1 (configuration not stated) | -14%&-10% | 6% | ? | 6%&-4% | ? | -1% | -6% | 0.4%&-3.2%
OCC(O)C(O)CC1SCCS1 (configuration not stated) | -16% | . | 14% | . | 1% | -5% | . | .
C=CCNC(=S)NNC(=O)c1ccncc1 | 2% | 1% | . | . | . | 2% | 0% | .
Cc1c(C(=O)N2CCC(C(N)=O)CC2)oc2ccc(Br)cc12 | 32%[activator] | . | 0%[46.1 µM] | . | 2% | 32% | 5% | .
CCc1ccccc1N(CC(=O)NC(C)(C)CC)C(=O)CCC(=O)Nc1nccs1 | -15% | 8% | . | . | . | 0% | 4% | .
CC1CCCCN1C(=O)c1ccccc1OC1CCN(S(C)(=O)=O)CC1 (configuration not stated) | -4% | 3% | 24%[46.1 µM] | . | -18%[46.1 µM] | -1% | 1% | .
Cc1cccc(C)c1NC(=O)CN(C)C(=O)c1ccc(-c2cccc(C(F)(F)F)c2)o1 | -14% | . | ? | . | 5.6µM* | -12% | 6% | .
CC1COC(C)(CC(=O)NN2C(=O)c3ccccc3C2=O)O1 (configuration not stated) | -13% | 3% | -3%[46.1 µM] | . | -4% | -9% | 0% | .
COC(=O)c1scc(-c2ccc(C)cc2)c1S(=O)(=O)N1CCN(c2cccc(Cl)c2)CC1 | -30% | . | . | ? | 0%[46.1 µM] | . | . | -3.8%
CCOc1ccccc1NC(=O)Cn1c(=O)n(-c2ccccc2)c(=O)c2c1c1cc(C)ccc1n2C | -8% | . | . | 0% | 0%[46.1 µM] | . | . | -3.6%
COc1cccc(CNC(=O)CCc2nc(-c3ccc(C)cc3)no2)c1 | 3% | . | -7%[46.1 µM] | -4% | 15%[46.1 µM] | . | . | -5.2%
C/C(=N\NC(=O)c1nnn(-c2nonc2N)c1-c1ccccc1)c1ccco1 | 5% | 29% | . | . | . | -15% | 2% | .
Cc1cc(C)n2cc(CSc3nc4ccccc4s3)nc2n1 | 37%[activator] | -4% | ? | -14% | 8% | 24% | 3% | -2.5%
Cc1ccc(NC(=O)Cc2ccc3c(c2)CCCC3)cc1C | . | -5% | 0% | -2% | ? | -14% | 4% | -1.4%
O=C(Nn1cnc2ccccc2c1=O)c1ccc([N+](=O)[O-])cc1 | 15% | . | ? | . | 0% | 7% | -1% | .
COc1ccc(NC(=O)CN(C)C(=O)c2c(-c3c(F)cccc3Cl)noc2C)cc1 | -25% | . | 17% | . | 6% | -7% | 1% | .
Cc1cc(C(=O)N/N=C/c2cccc([N+](=O)[O-])c2)c(C)o1 | 54%[activator] | -4% | 6% | 6% | -5% | -8% | -3% | -3.0%
O=S(=O)(NCc1cccs1)c1ccc(Br)cc1 | 95%[activator] | -2% | . | . | . | 6% | 7% | .
Cc1ccc2nc(NCc3ccccc3Cl)c3nnnn3c2c1 | -11% | . | 11%[46.1 µM] | 6% | 2%[46.1 µM] | . | . | -2.1%
COc1ccc(CCNC(=S)Nc2ccc(OC)cc2)cc1 | -6% | -18% | -22% | -21% | 1% | -9% | 24% | -9.2%
C[C@]12CCC3C(CC[C@H]4C[C@@H](O)CC[C@]34C)[C@H]1CC[C@H]2O (some centres not stated) | -26% | . | 8%[46.1 µM] | . | 2%[46.1 µM] | 8% | -3% | .
N#CC(C#N)=C(N)CSc1cccc[n+]1[O-] | 25% | . | -29%[46.1 µM] | . | 0% | -12% | 5% | .
CC(C)c1ccc(NC(=O)c2ccc(NS(C)(=O)=O)cc2)cc1 | -6% | -3% | ? | . | -9% | 2% | 0% | .
O=C1c2ccccc2-c2nccnc21 | -8% | 3% | -6% | 0% | -7% | 29% | -6% | 0.0%
O=C(Cn1ccn(-c2cccc(Cl)c2)c(=O)c1=O)c1ccc(F)cc1 | 31%[activator] | . | . | -3% | 11%[46.1 µM] | . | . | -5.2%
CC1=C(C(=O)OCC2CCCO2)C(c2ccc(C)cc2)C2=C(CCCC2=O)N1 (configuration not stated) | 10% | . | -9%[46.1 µM] | . | -17% | -5% | 2% | .
COC(=O)c1ccccc1NC(=S)NC(=O)COc1ccc(C(C)C)cc1 | -16% | -3% | ? | 5% | 1% | 7% | 7% | -11%
Cc1cccc(NC(=O)C2CCCN(S(=O)(=O)c3cccc4nonc34)C2)c1 (configuration not stated) | -6%&5% | . | ? | -1% | 4% | -2% | -3% | -1.4%
COc1ccc(CNC(=O)c2ccc3c(c2)N(Cc2ccccc2)CCS3)cc1 | 9% | . | ? | -18% | 4.5µM* | . | . | -7.9%
COC(=O)c1ccc(C(C(=O)NCc2ccccc2)N(Cc2cccs2)C(=O)c2cnccn2)cc1 (configuration not stated) | -11% | 7% | ? | 0% | -5% | 4% | 0% | -2.8%
COc1ccc(C(=O)NCCCNC(=O)c2cccnc2)cc1OC | -7% | 19% | 2%[46.1 µM] | . | 6%[46.1 µM] | 8% | 0% | .
O=C(O)c1nnn(-c2ccc([N+](=O)[O-])cc2)c1-c1ccccc1 | -16% | -2% | . | . | . | 3% | 1% | .

Only SARS PLP yeast and Lassa entry inh (3 entries from above):
| structure | SARS PLP yeast | Lassa entry inh |
| --- | --- | --- |
| O=C1c2ccccc2-c2nccnc21 | -6% | -7% |
| O=C(Cn1ccn(-c2cccc(Cl)c2)c(=O)c1=O)c1ccc(F)cc1 | . | 11%[46.1 µM] |
| CC1=C(C(=O)OCC2CCCO2)C(c2ccc(C)cc2)C2=C(CCCC2=O)N1 (configuration not stated) | 2% | -17% |

Additional structures:
SMILES | 2A StopGo | NS1 function inh | Marburg entry inh | Cruzain noTriton | Lassa entry inh | RE007 growth inh | SARS PLP yeast | Cruzain inh Det
COc1ccc(NC(=O)c2cc3ccc(O)cc3o/c2=N\O)cc1 | ? | 9% | ? | . | ? | -25% | 1% | .
Cc1cccc(CCNC(=O)c2sc3nc4n(c(=O)c3c2C)CCCC4)c1 | 5% | . | . | -11% | 6%[46.1 µM] | . | . | -2.3%
CC1(C)CCN2CCC(C)(C)c3c(O)ccc1c32 | ? | 11% | . | . | . | 2% | -11% | .
CCc1ccc(C2=CC(c3cccc(OC)c3OC)n3c(nc4ccccc43)N2)cc1 (configuration not stated) | -50% | . | . | 0% | ? | . | . | -2.0%
COc1ccccc1NC(=O)c1ccc(-c2nn(C)c(=O)c3ccccc23)cc1 | ? | 1% | -7%[46.1 µM] | . | 20% | 9% | 0% | .
CCC1(c2ccc(-c3ccccc3)cc2)C(=O)NC(=O)NC1=O | 0% | 8% | . | . | . | 9% | 0% | .
Cc1ccccc1NC(=O)CCc1c(C)nn(-c2ccc(N3CCCCC3)nn2)c1C | 5%&1% | -12% | ? | -8% | ? | 5% | -1% | -2.2%
Cc1cnc(CN(C)C(=O)C2CCC(=O)N(CCc3ccccc3)C2)[nH]1 (configuration not stated) | 7% | 7% | . | . | . | -7% | -4% | .
